Screens from PubChem.
Sa RN4220 lethal: kills Staphylococcus aureus RN4220; AID 1259311; inhibition, % (test concentration not listed); hit rate 0.33% among 330,000; S. aureus RN4220 growth, OD600, 16 h;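 active = z-score of -3 or lower and OD600 up to 0.18 on both plates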;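 also: plate controls were untreated cells for no effect and reference antibiotic for full effect; stock transfer was 100 nL into about 80 µL; one replicate is shown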
Sa ugtP lethal: compounds lethal to S. aureus RN4220 ugtP deletion mutant. hit rate 0.54% among 330,000. growth inhibition, % (concentration not given with the values). OD600 growth, 16 h; some inactives read as strong as hits;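 active = z-score under -3 and OD600 up to 0.15 on both plates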;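 also: plate controls were untreated wells for no effect and antibiotic for full effect; wells of about 80 µL received 100 nL stock; the first replicate is given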
PrP UTR inh: inhibition of PrP 5' UTR reporter expression; cell-based PrP 5' UTR mRNA reporter, plate reader; inhibition, % (no concentration beside the values); hit rate 0.35% among 340,000;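 active = every replicate at 50% or more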;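 also: 0 = median of the neutral control wells; tested in H4 reporter cells; numbers are from one replicate; inactives centre near -14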
Mtb hypoxia inh: Mtb hypoxia fluorescent reporter inhibition | M. tuberculosis hypoxia-regulated fluorescent reporter, fluorescence | fluorescence inhibition, % (concentration not given with the values) | hit rate 0.1% among 300,000;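 active = 35 to 45% if threefold the growth effect, above 45% if 1.5-fold the growth effect; inactive = the rest, general growth blockers included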;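 also: wells of about 50 µL received 100 nL stock; 0% = vehicle wells and 100% = reference inhibitor wells; whole bacteria with a GFP reporter of the hypoxia response; strong numbers were not always called active; many hits fall short of the cut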
BJeLR viability: kills HRASV12-expressing BJeLR cells; inhibition, % (test concentration not listed); hit rate 0.17% among 300,000; BJeLR (HRASV12) viability, CellTiter-Glo ATP luminescence, 48 h; reference of the scale not given here; AID 1554;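 active = replicate mean above 50%; inconclusive = above 50% but judged a plate artefact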;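 also: 50 nL library stock added to about 25 µL; numbers are from one replicate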
Autofluor counter: counter-screen for toxin protease inhibitors: compound fluorescence; hit rate 3.1% among 360,000; fluorescence intensity (test concentration not listed); compound autofluorescence counterscreen, microsphere flow cytometry; active compounds read high;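 active = at least 3 SD above the mean of all compounds, about 16000 in these data; inconclusive = too few beads counted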;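 also: 100 nL of 1 mM stock went into each well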
Mtb hypoxia inh growth: recorded beside Mtb hypoxia inh, whose call it bears; growth inhibition, %; measured here: M. tuberculosis growth (absorbance);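 0% = vehicle and 100% = reference antibiotic; read after six days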
The depositor's hits bear a star; ? = inconclusive; / = no result given.

Screens in order – Sa RN4220 lethal	Sa ugtP lethal	PrP UTR inh	Mtb hypoxia inh	Mtb hypoxia inh growth	BJeLR viability	Autofluor counter
O=C(NCC(c1cccnc1)N1CCN(c2ccc(F)cc2)CC1)c1ccccc1 (stereo not drawn)
→ 5.1	-7	-3	0	5	-2	2822
C/C=C/C(=O)Nc1cccc(C2=NOC3(C2)C[C@@H](C(N)=O)N(C(=O)/C(C)=C/C)C3)c1 (stereo partly drawn)
→ /	/	-21	/	/	12	4278
CCOc1ccc(-n2c(SCc3nc(-c4cccs4)no3)nnc2-c2ccncc2)cc1
→ 5.9	-5	-16	-3	-4	-7	4628
C=CC[C@@H](CC(=O)NCCO)C(=O)N[C@H](COC(=O)[C@@H](CC=C)Cc1ccc(F)cc1)Cc1c[nH]c2ccccc12
→ 6.4	-13	-24	6	8	/	4112
COc1cccc(C(=O)OCC(=O)NC23CC4CC(CC(C4)C2)C3)c1
→ 4.8	-4	-10	5	2	/	3763
COc1ccccc1N1CCN(C(=O)C(C)NC(=O)c2cccc([N+](=O)[O-])c2)CC1 (stereo not drawn)
→ 0.1	7	-29	-2	9	-3	3524
Cc1cc(C)cc(N(CCC(=O)O)S(=O)(=O)c2ccc(Cl)cc2)c1
→ 6.3	-3	-16	6	12	9	2073
Cc1cccc(NC(=O)Cc2ccc(NC3=NC4CS(=O)(=O)CC4S3)cc2)c1 (stereo not drawn)
→ -13	-4	-19	9	10	-1	5917
Cc1ccc(-n2[nH]c(C)c(C=NNC(=O)c3ccc(O)cc3O)c2=O)cc1
→ 1.4	-9	/	-2	-6	/	/
Cc1ccc2[nH]c(=O)c(CN(CCCN(C)C)C(=O)Nc3cccc(Cl)c3)cc2c1
→ -2.2	4	-20	10	4	31	21520*
O=C(Nc1ccc(F)cc1)N1CCN(c2ccc3nnc(-c4ccc(F)cc4)n3n2)CC1
→ -4.0	3	-8	-5	-3	-4	6123
O=C(COC(=O)c1ccc([N+](=O)[O-])o1)NCc1ccc2c(c1)OCO2
→ 11	6	-24	11	1	/	3465
O=C(Nc1ccc(S(=O)(=O)N2CCOCC2)cc1)c1ccc(CN2CCc3ccccc3C2)cc1
→ 4.4	-3	/	-16	-7	12	/
C=CCSc1nnc(NC(=O)C2=COCCO2)s1
→ 8.1	8	-88	12	5	3	6859
NS(=O)(=O)c1ccc(CCNC(=S)NC2CCCC2)cc1
→ 5.7	13	-5	22	16	3	3206
CCOc1cccc(C(=O)NC(=S)Nc2ccc3c(c2)OCCO3)c1
→ /	/	-25	/	/	9	4261
COC(=O)c1cc(COC(=O)c2ccc3ccccc3n2)oc1C
→ 6.7	7	4	2	10	-12	4721
COc1cc(/C=N/NC(=S)NCCN2CCOCC2)cc(OC)c1O
→ /	/	-6	/	/	-23	7133
O=C(CSc1ncn[nH]1)NCc1ccccc1Cl
→ 1.3	1	-4	16	3	-7	4226
Cc1ccc(OCCCN2C(=O)C(=O)c3cccc(C)c32)cc1
→ 19	-11	-25	13	4	1	3081
CC(=O)c1ccccc1OCCn1nnc(-c2ccc(C)cc2)n1
→ 4.2	5	-13	9	11	-4	6763
Cc1ccc2c(=O)[nH]c(Nc3nc(C)cc(-c4ccccc4)n3)nc2c1
→ 7.9	1	-16	15	0	4	4185
Cc1csc2nc(CNS(=O)(=O)c3ccc4c(c3)OCCO4)cn12
→ 30	24	-15	-4	2	3	4210
CC(=O)c1sc(NN=C2CC3CC2C(C)C3(C)C)nc1C (stereo not drawn)
→ 2.8	-4	/	-8	8	/	/
O=S(=O)(N1CCCCCC1)N1CCN(S(=O)(=O)N2CCOCC2)CC1
→ -0.1	6	-13	/	/	-1	4701
O=C1NC(=S)N(c2ccccc2)C(=O)/C1=C/c1ccco1
→ /	/	-14	/	/	0	3584
CCN=C1SC(C(=O)Nc2ccc(OC)cc2)CC(=O)N1CC (stereo not drawn)
→ 2.3	-3	1	3	10	-7	3226
CC(C)Sc1nc2c(c(=O)[nH]c(=O)n2C)n1Cc1ccc(Cl)cc1
→ -1.2	15	-15	/	/	-2	5027
Cc1ccc(C2=NN(C(=O)CSc3nccn3C)C(c3ccco3)C2)cc1 (stereo not drawn)
→ 1.1	1	-11	8	7	14	5661
c1ccc(OCCOCCN2CCc3ccccc3C2)cc1
→ 2.4	11	-22	-1	13	-2	2791
Cc1cc(=O)oc2c(C)c(OC(C)C(=O)NCCCN3CCCC3=O)ccc12 (stereo not drawn)
→ 1.4	1	-11	6	8	3	5438
COc1ccc(C(=O)CSc2nn3c(=O)c(C(C)(C)C)nnc3s2)cc1
→ -12	-7	-19	14	10	-2	3368
Cc1c2ccccc2nc2ccccc12
→ 4.5	6	-15	-2	-1	-16	4226
Cc1ccc(-n2c(C)c3c(C)nnc(C)c3c2C)cc1N
→ /	/	-21	/	/	10	4152
O=C(CSc1nc(=O)n2cc(Cl)ccc2n1)Nc1ccc2c(c1)OCCO2
→ 4.3	4	0	2	0	3	5594
COc1ccc(C(=O)Nc2ccccc2C(=O)NCCN2CCOCC2)cc1OC
→ 2.7	7	-18	13	7	1	5030
O=C(CN1CCN(Cc2ccccc2)CC1)Nc1cccc(C(F)(F)F)c1
→ 0.4	0	-11	-6	1	-4	?
O=C(COC(=O)c1ccc(Cl)nc1)Nc1ccc(S(=O)(=O)N2CCCC2)cc1
→ 0.7	7	-10	12	5	0	2467
N#Cc1ccc(-c2csc(NC(=O)/C=C/c3cccs3)n2)cc1
→ 1.6	48	5	3	1	5	1908
CCCCOc1ccc(C(=O)N/C(=C\c2cccc([N+](=O)[O-])c2)C(=O)OCCC)cc1
→ 0.8	1	-11	/	/	-2	2508
O=C(CNC(=O)c1ccccc1)OCC(=O)c1ccc(Cl)s1
→ 1.9	2	3	8	3	/	2946
Cc1ccc(C=NNC(=O)Cn2nc(C)c([N+](=O)[O-])c2C)o1
→ 0.3	-3	/	-9	3	/	/
CCOc1ccc(C(C)=O)cc1COC(=O)CN1C(=O)NC2(CCCC2)C1=O
→ 3.0	4	-18	6	0	-11	?
CN(CCN1CCc2ccccc2C1)Cc1nc(Cc2ccccc2F)no1
→ 1.6	-4	-53	-2	8	/	4100
CCOC(=O)c1c(C)c(C(=O)NCc2ccc3c(c2)OCO3)c(C)n1CC
→ 2.3	2	-22	6	-2	-6	2126
O=C(CC1CCCCC1)NC1CCCC1
→ -0.6	-2	-14	/	/	3	2991
O=c1nc2s/c(=C\c3ccco3)c(=O)n2nc1Cc1ccc(F)cc1
→ /	/	-17	/	/	-7	25032*
COC(=O)c1ccc(N2CCN(C)CC2)c(NC(=O)c2cccs2)c1
→ -2.0	-6	-23	2	-1	-6	6196
CC1CC(C)CN(CCC(=O)Nc2ccc(Br)cc2)C1 (stereo not drawn)
→ 3.7	13	-13	5	-1	-3	3395
CCOc1ccc(/C(O)=C2\C(=O)C(=O)N(CCN(C)C)C2c2cc(OC)ccc2OC)cc1Cl (stereo not drawn)
→ 1.3	-1	-18	2	5	/	2471
CCCCOc1ccccc1C(=O)NCCCC(=O)O
→ 4.3	-7	-29	2	4	6	3772
CC1CCCN(C(=O)CN(C)S(=O)(=O)c2cccc3nsnc23)C1 (stereo not drawn)
→ 3.8	4	-20	10	7	4	5936
CN(C)C(CNC(=O)CCNC(=O)c1ccc(Br)cc1)c1ccco1 (stereo not drawn)
→ 4.3	3	-26	-3	-6	10	5936
O=C(NCC(c1ccco1)N1CCc2ccccc2C1)c1ccc(F)cc1 (stereo not drawn)
→ 1.4	13	-14	4	1	7	4609
Cc1ccccc1N(Cc1ccccc1F)S(C)(=O)=O
→ 6.2	3	-7	9	4	6	23221*
CCOC(=O)c1cccc(NC(=O)C2(S(=O)(=O)c3ccc(Cl)cc3)CC2)c1
→ 22	-6	-36	5	-3	-9	9429
CCC(CC)C(=O)N1CC(=O)Nc2ccc(C)cc2C1c1ccccc1 (stereo not drawn)
→ 2.4	5	-11	3	5	0	3748
O=C(Nc1cc(C(=O)N2CCN(c3ccccc3)CC2)ccc1Cl)c1cccs1
→ 0.9	2	2	6	-3	/	2948
CCCCC(C(=O)N/N=C/c1ccccn1)C(=O)N/N=C/c1ccccn1
→ /	/	-19	/	/	-3	4231
CC[N+]1=CN(c2ccccc2)C(C)=CC1(C)C
→ 6.5	3	-25	9	5	0	9590

More results.
Screens in order – Sa RN4220 lethal	Sa ugtP lethal	PrP UTR inh	Mtb hypoxia inh	Mtb hypoxia inh growth	BJeLR viability	Autofluor counter
CNCC1Oc2c(NC(=O)C3CC3)cccc2C(=O)N(C(C)CO)CC1C (stereo not drawn)
→ -2.3	-1	/	-5	4	/	/
O=S(=O)(c1ccc(Br)cc1)n1c(Cc2ccccc2)nc2ccccc21
→ 3.1	5	-33	7	17	7	2265
Cn1nc(C(F)(F)F)c2cc(C(=O)Nc3ccc(F)cc3F)sc21
→ 1.8	-8	-3	0	17	0	3788
Cc1csc2nc(CCNS(=O)(=O)c3cccs3)cn12
→ 0.7	8	-46	1	-1	8	6136
CCc1ncc(CN2CCCC(C(=O)Nc3cccc(-c4cccc(C)c4)c3)C2)cn1 (stereo not drawn)
→ -0.1	-5	2	6	6	11	5883
COc1ccc(S(=O)(=O)N2CCC(C(=O)NC3CC3)CC2)cc1Cl
→ 1.5	-6	-16	/	/	-5	2214
COc1ccc(CCNC(=O)c2ccccc2C(=O)NCCc2ccc(OC)c(OC)c2)cc1OC
→ 1.8	12	/	20	13	-2	/
Cc1cc(NC(=O)c2cnn3c(C(F)(F)F)cc(-c4ccc(Br)cc4)nc23)no1
→ 1.5	6	9	4	-5	-13	23282*
O=C(OCC(=O)N1CCOCC1)c1ccccc1OCc1ccccc1
→ 5.1	10	-20	8	10	/	5517
O=C(Cn1cccn1)N1CCCC(Nc2ccc(F)c(F)c2)C1 (stereo not drawn)
→ 2.1	-1	0	0	4	7	5934
O=C(Cn1nc(-c2ccc(Cl)cc2)ccc1=O)NCc1ccc2c(c1)OCO2
→ 16	10	-12	7	8	-4	4429
CC(C)=CCC/C(C)=C/CNC(=O)C[C@H]1C[C@H](C(=O)N2CCOCC2)[C@@]2(CCC3CCCC3)c3[nH]c4cc(CCC(=O)N(C)C)ccc4c3CCN2C1=O
→ -10	-5	-11	-10	2	/	3702
Cc1c(CCC(=O)NC2CC2)c(=O)oc2cc(O)ccc12
→ 0.2	6	-18	/	/	5	5523
Cc1ccccc1-n1nnnc1SCc1cc(=O)n2ccsc2n1
→ 4.2	2	/	6	12	-6	3917

13 entries from above, ordered by molecular weight, low to high:
Screens in order – Sa RN4220 lethal	Sa ugtP lethal	PrP UTR inh	Mtb hypoxia inh	Mtb hypoxia inh growth	BJeLR viability	Autofluor counter
CC[N+]1=CN(c2ccccc2)C(C)=CC1(C)C
→ 6.5	3	-25	9	5	0	9590
Cc1c(CCC(=O)NC2CC2)c(=O)oc2cc(O)ccc12
→ 0.2	6	-18	/	/	5	5523
O=C(Cn1cccn1)N1CCCC(Nc2ccc(F)c(F)c2)C1 (stereo not drawn)
→ 2.1	-1	0	0	4	7	5934
O=C(OCC(=O)N1CCOCC1)c1ccccc1OCc1ccccc1
→ 5.1	10	-20	8	10	/	5517
Cn1nc(C(F)(F)F)c2cc(C(=O)Nc3ccc(F)cc3F)sc21
→ 1.8	-8	-3	0	17	0	3788
CCCCC(C(=O)N/N=C/c1ccccn1)C(=O)N/N=C/c1ccccn1
→ /	/	-19	/	/	-3	4231
CNCC1Oc2c(NC(=O)C3CC3)cccc2C(=O)N(C(C)CO)CC1C (stereo not drawn)
→ -2.3	-1	/	-5	4	/	/
O=C(Cn1nc(-c2ccc(Cl)cc2)ccc1=O)NCc1ccc2c(c1)OCO2
→ 16	10	-12	7	8	-4	4429
CCc1ncc(CN2CCCC(C(=O)Nc3cccc(-c4cccc(C)c4)c3)C2)cn1 (stereo not drawn)
→ -0.1	-5	2	6	6	11	5883
O=S(=O)(c1ccc(Br)cc1)n1c(Cc2ccccc2)nc2ccccc21
→ 3.1	5	-33	7	17	7	2265
Cc1cc(NC(=O)c2cnn3c(C(F)(F)F)cc(-c4ccc(Br)cc4)nc23)no1
→ 1.5	6	9	4	-5	-13	23282*
COc1ccc(CCNC(=O)c2ccccc2C(=O)NCCc2ccc(OC)c(OC)c2)cc1OC
→ 1.8	12	/	20	13	-2	/
CC(C)=CCC/C(C)=C/CNC(=O)C[C@H]1C[C@H](C(=O)N2CCOCC2)[C@@]2(CCC3CCCC3)c3[nH]c4cc(CCC(=O)N(C)C)ccc4c3CCN2C1=O
→ -10	-5	-11	-10	2	/	3702
